# TRPML1 ag: activates the human TRPML1 channel; Q9GZU1; TRPML1-expressing cells, Ca2+ dye fluorescence, FDSS; host cell line not named in the record; reference of the full effect not given here; activation, % (test concentration not listed); 0.12% of 410,000 active; in the data active = activation above about 50%; inconclusive = about 30% to 50%; inactive = below about 30%; note: 0% is about no effect; the text of the record puts the active cut at 80%
# Target sequence (Q9GZU1 whole entry, looked up): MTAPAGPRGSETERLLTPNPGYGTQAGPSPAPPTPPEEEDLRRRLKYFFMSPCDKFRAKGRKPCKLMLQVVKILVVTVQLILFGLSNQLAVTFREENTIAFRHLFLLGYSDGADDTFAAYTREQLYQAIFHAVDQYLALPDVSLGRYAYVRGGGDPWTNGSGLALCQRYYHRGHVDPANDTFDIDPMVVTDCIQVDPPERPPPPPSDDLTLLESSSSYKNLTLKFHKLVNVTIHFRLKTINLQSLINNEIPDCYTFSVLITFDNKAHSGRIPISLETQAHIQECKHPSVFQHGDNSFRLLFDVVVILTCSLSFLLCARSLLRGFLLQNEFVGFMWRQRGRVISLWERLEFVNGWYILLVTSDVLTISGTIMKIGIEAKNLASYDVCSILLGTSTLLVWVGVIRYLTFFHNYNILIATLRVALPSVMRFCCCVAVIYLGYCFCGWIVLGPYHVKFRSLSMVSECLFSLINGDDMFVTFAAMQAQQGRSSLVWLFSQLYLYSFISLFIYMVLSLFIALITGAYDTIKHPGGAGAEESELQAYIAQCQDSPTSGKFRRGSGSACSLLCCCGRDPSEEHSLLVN
#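 Agonist activity was taken from a 110 s kinetic Ca2+ dye read on the FDSS after pinning compounds onto TRPML1-DL cells. The cells were seeded at 1,500/well with Tet inducer, incubated about 16 h, then dye-loaded at room temperature.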
# Sfp inh: blocks B. subtilis Sfp PPTase activity; Potency, µM, without a hit: max response, negative = inhibition, actives largely listed as inhibitors; AID 1490; Biochemical Sfp PPTase activity, qHTS; Q9F4F7; 3.5% of 310,000 active; active = well fitted inhibition curve with a large enough effect; inconclusive = small, poorly fitted or top-dose-only effect, or another doubt; inactive = no such curve, though single readings can be large or run the other way;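 note: the enzyme is Sfp with the accession as filed and its product quenches rhodamine fluorescence; potency is the fitted concentration of half-maximal effect; 0% = enzyme reaction without inhibitor and -100% = no enzyme wells; top concentration of the series not given in the record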
#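 Step 1, compound plus 15 nM Sfp-PPTase, 15 min, room temperature. Step 2, add rhodamine-CoA (5 uM) and BHQ-2-YbbR (12.5 uM). Step 3, read 525/598 nm fluorescence at 0 and 30 min.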
# PINK1 expr mod: PINK1 expression modulation; 0.2% of 410,000 active; Potency, µM (top dose mostly 76.6 µM), for the others: at the top dose activation (PINK1 increase), most hits filed as activators; AID 624263; PINK1 immunofluorescence, high-content cytometry, 24 h; active = well fitted activation curve with a large enough effect; inconclusive = small, poorly fitted or top-dose-only effect; inactive = flat fitted curve, though single readings scatter; cell line not stated here;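 note: potency is the fitted concentration of half-maximal effect; % of control where 0% means no effect; nearly all actives have a fitted effect of over 65% in size; a mitochondrial uncoupler was the plate control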
#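 A stable cell line was treated with compounds at 5 concentrations for 24 hours, with CCCP as control. PINK1 levels and mitochondrial localization were measured by immunofluorescence with mitochondrial, cell and nuclear markers after fixation, read by laser-scanning cytometry.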
# TRPML1 inh: inhibitors of human TRPML1 channel; Q9GZU1; TRPML1-inducible cells, Ca2+ dye fluorescence, FDSS; active compounds read low; inhibition of EC80 agonist-evoked calcium signal; activity change, negative = inhibition, % (test concentration not listed); 0.02% of 390,000 active; AID 624415; in the data active means activity change below about -50%; inconclusive means about -30% to -50%; inactive means above about -30%;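 note: stimulus is agonist 54-4 at its EC80 concentration; % is set by controls: 0 for no effect and ±100 for the full control effect; compound concentration not given in the record; the text of the record puts the active cut at -80%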
#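 TRPML1-DL cells, Tet-induced overnight (~16 h, 37 °C) at 1,500 cells/well, were loaded with Ca8 no-wash dye plus quencher for 45-90 min at room temperature. Compounds were pinned during FDSS kinetic reading; agonist 54-4 at EC80 (4 uM final) then added.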
# ClpP mod: qHTS Assay for Activators of ClpP; ATP-dependent Clp protease proteolytic subunit (Bacillus subtilis (strain 168)), P80244; purified B. subtilis ClpP, FRET peptide cleavage, 20 min; Potency, µM (series often up to 57.5 µM), for inactives: top-dose activity change, negative = active; 1.9% of 340,000 active; active = well fitted falling curve with a large enough effect; inconclusive = small, poorly fitted or top-dose-only effect; inactive = no such curve, though single readings can be large or run the other way; note: potency is the fitted concentration of half-maximal effect; the source files actives as falling curves though it sought activators and does not explain the sign; nearly all actives have a fitted effect of over 65% in size; many hits overshoot -100%
# Target sequence (P80244 whole entry, looked up): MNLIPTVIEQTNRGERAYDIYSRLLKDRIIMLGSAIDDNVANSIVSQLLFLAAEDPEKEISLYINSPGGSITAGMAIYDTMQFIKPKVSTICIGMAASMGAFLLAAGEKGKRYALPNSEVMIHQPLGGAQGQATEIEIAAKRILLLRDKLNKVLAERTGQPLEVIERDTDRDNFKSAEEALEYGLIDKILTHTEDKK
#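 FRET quenching reversal measured ClpP activation: 10 microg/mL B. subtilis ClpP at pH 8 with the FRET-FV decapeptide, read at 430 nm after 320 nm excitation. The 20-min minus 0-min signal was scaled between DMSO/no-enzyme wells and ADEP (5.8 microM final).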
# TRPV1 PAM: human TRPV1 potentiation. Q8NER1. TRPV1-expressing cells, Fluo-8 calcium influx, capsaicin EC20 potentiation; host cell line not named in the record; control for the full effect not named in the record. potentiation, % at 8.33 µM. 0.02% of 320,000 active. AID 540277; active means potentiation above 80%; inconclusive means 30% to 80%; inactive means below 30%; note: 0% is about no effect
#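 TRPV1-expressing cells were cultured overnight at 35.5C and loaded with Fluo-8 calcium dye for 40 to 90 min at room temperature. After a 10 s baseline, compound was added and calcium influx was read kinetically for 3 min (ex 480/em 520 nm).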
# Menin MLL FP FL: displaces fluorescein MLL peptide from human menin | Fluorescence polarization, fluorescein-MLL peptide displacement from menin | FP activity change, % at 61.4 µM | 290,000 tested, under 10 active | AID 1766; inconclusive = falling polarisation curve, or a change in total fluorescence; inactive = total fluorescence flat and polarisation flat or rising; no compound was filed as active; the % refers to the polarisation; negative = inhibition;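 note: % of control where 0% means no effect; inhibitors lower the polarisation; unlabelled MLL peptide was the positive control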
# An asterisk follows results filed as active; ? = inconclusive; / = no result given; [ ] = dose if it differs, or a comment.
SMILES,TRPML1 ag,Sfp inh,PINK1 expr mod,TRPML1 inh,ClpP mod,TRPV1 PAM,Menin MLL FP FL
Cc1cccc(N2CCN(C(=O)[C@H](C)N3C(=O)C4CC=CCC4C3=O)CC2)c1C (some centres not stated),0.1,/,-1.2%,-4.0,/,/,/
CCOC(=O)N1CCN(Cc2nc(-c3cccs3)no2)CC1,0.9,-8.0%,0.3%,-2.8,-0.7%,2.9,0.6
O=C(CNC(=O)c1ccccn1)N/N=C/c1ccccc1,-0.5,-5.4%,0.4%,0.3,-2.1%,-42.9,1.5
COc1cc(NC(=O)C2=C(C)OCCS2)c(Cl)cc1C(=O)NCCN1CCN(C)CC1,-0.8,4.1%,0.7%,9.5,-1.8%,-9.9,3.0
Cc1ccc2c(CSc3nnc4ccccn34)cc(=O)oc2c1C,-0.3,2.6%,-0.2%,7.2,-2.2%,9.1,4.0
CSc1nc2ccccc2n1CC(=O)Nc1cc(C(F)(F)F)ccc1N1CCOCC1,1.0,4.4%,-0.1%,3.0,9.4%,-0.6,0.2
CCOC(=O)Cn1c(CCC(=O)O)ccc1-c1ccc(F)cc1,0.3,5.3%,-0.8%,14.4,4.3%,12.9,3.3
CC(C)(C)Nc1c(-c2ccc(O)cc2)nc2ccc(Cl)cn12,0.1,63.1µM*,-1.3%,7.4,/,4.4,2.2
CC(C)Cn1cc(NC(=O)NCc2ccccc2Cl)c2ccccc2c1=O,2.5,/,-3.3%,-4.2,3.5%,/,/
Cc1cc(C(=O)c2cnc(/N=C/N(C)C)s2)cc(C)c1O,-0.6,22.2%,2.6%,-3.8,-11.2%,25.8,11.3
CCC(C)(C)NC(=O)C(c1ccc(C)cc1)N(Cc1ccco1)C(=O)Cn1nnc2ccccc21 (configuration not stated),1.0,7.5%,4.8%,-2.2,1.1%,-15.1,7.2
COc1ccccc1CNc1nc(NCC2CC2)nc2ccsc12,-0.5,/,?,/,-8.2%,/,/
CCOC(=O)c1cnc2c(c(C)nn2CC)c1NCCN1CCOCC1,-0.1,6.7%,2.6%,-0.6,/,7.0,-1.8
C/C(=N\NC(=O)c1ccc(Br)cc1)c1cccnc1,0.7,12.9%,0.9%,-19.3,-0.1%,5.2,-1.1
C/C(=N\NC(=O)CC1N=C(Cc2ccccc2)NNC1=O)c1ccccc1 (configuration not stated),-0.4,-11.2%,0.3%,4.0,0.4%,4.9,-0.9
COc1ccc(N2C(=O)CCC(C(=O)N3CCCCCC3)C2c2ccc(OC)c(OC)c2)cc1 (configuration not stated),0.4,12.0%,0.8%,18.4,-0.7%,-3.6,-1.6
CCN1CCCC1CNS(=O)(=O)c1ccc(Cl)c(C(F)(F)F)c1 (configuration not stated),0.1,2.7%,-0.4%,2.2,-0.9%,-9.9,-2.5
CCCn1c2ccccc2c2cnn(CC(=O)NCCCN3C(C)CCCC3C)c(=O)c21 (configuration not stated),1.5,-3.7%,1.4%,68.1,3.3%,-8.5,/
O=C(Nc1ccc(N2CCOCC2)cc1)C1CCN(S(=O)(=O)Cc2ccccc2)CC1,0.7,6.4%,6.3%,-0.9,-1.4%,-9.1,5.9
Cc1cccc(C)c1NC(=O)COC(=O)COc1ccc2c(C)cc(=O)oc2c1,-0.3,-19.4%,2.1%,1.7,80.2%,-8.4,9.6
Cn1ccnc1C(O)c1ccc(OCc2ccccc2)cc1 (configuration not stated),1.4,15.0%,-1.0%,-7.3,-2.0%,-1.7,2.9
O=c1sc2ccccc2n1CCCOc1ccccc1,4.3,-4.5%,-1.1%,-9.3,-0.1%,-22.1,1.2
CCn1c(C)cc(C(=O)COC(=O)c2cccnc2SC)c1C,0.6,/,2.4%,18.1,1.9%,/,/
CSCc1nnc(NC(=O)c2ccc(S(=O)(=O)N3CCCCC3C)cc2)o1 (configuration not stated),-1.3,6.1%,-0.2%,10.9,1.0%,12.5,-2.8
Cn1c2c(c3ccccc31)CC/C2=N\O,0.8,2.1%,-0.8%,13.0,-3.1%,17.4,2.5
SMILES,TRPML1 ag,Sfp inh,PINK1 expr mod,TRPML1 inh,ClpP mod,TRPV1 PAM,Menin MLL FP FL
O=C(O)CCS(=O)(=O)c1cc(Br)cc2c1N(C(=O)C1CC1)CC2,-0.9,5.0%,2.8%,30.1,/,28.8,-0.1
O=C(c1csnn1)N1CCC[C@@]2(CCN(Cc3ccccc3)C2)C1,/,4.5%,-0.2%,/,/,/,-3.7
CCCCn1nnnc1SCC(=O)Nc1cccc(C)n1,0.4,17.7%,-0.6%,-1.6,-1.0%,-7.7,0.4
CCN(CC)CCCNC(=O)c1csc(Nc2cccc3ccccc23)n1,-0.4,-14.0%,9.2%,9.5,-4.5%,-11.5,-5.8
Cc1cccc(CNc2cc(-c3c(C)noc3C)ncn2)c1,/,4.8%,-1.1%,/,/,/,-8.6
Cc1cc(C)cc(NC(=O)c2c(C)nc3ccccn23)c1,0.7,2.8%,-0.4%,0.5,/,-4.6,-3.0
COc1ccc(Cl)cc1CN1C(=O)NC2(CCCCCC2)C1=O,1.9,9.2%,-0.7%,33.5,/,-2.6,-6.3
CCNC(=S)N(Cc1cc2cc(C)ccc2[nH]c1=O)C1CCCC1,0.7,56.2µM*,1.5%,-1.1,-23.5%,-1.7,-1.8
COC(=O)c1sc2nc(N)c(C#N)cc2c1N,-0.4,-17.7%,?,5.1,-10.8%,-1.8,4.3
CCCc1cc(C(=O)Nc2cccc(C(C)=O)c2)no1,-0.2,-14.0%,3.8%,14.9,-5.6%,/,2.2
COc1ccc(/C=C/C(=O)OCC(=O)c2ccc3c(c2)NC(=O)CO3)cc1,0.9,3.9%,0.6%,-9.9,-3.2%,-1.8,2.5
Cc1cc(C)c(C)c(S(=O)(=O)NCCCn2ccnc2)c1C,0.2,7.9%,-0.2%,15.5,/,-1.0,0.2
COc1ccccc1-n1c(-c2ccc(F)cc2)coc1=O,-1.6,5.4%,-0.1%,-4.6,0.3%,-5.5,0.8
CC(=O)c1ccc(NC(=O)C2(c3ccccc3)CC2(Cl)Cl)cc1 (configuration not stated),7.4,-25.7%,1.3%,1.7,/,10.8,1.0
COc1cccc(NC(=O)CCC(=O)N2Cc3ccccc3Oc3ncccc32)c1,2.6,/,0.2%,5.5,-4.9%,/,/
CC(C)Cn1c(CN2C(=O)c3ccccc3C2=O)nc2ccccc2c1=O,0.1,10.6%,-4.6%,-7.0,-2.9%,-4.0,6.1
COc1ccc(OC)c(/C=C2\SC(=S)N(N3CCOCC3)C2=O)c1,0.0,8.6%,15.5%,4.2,/,/,1.6
CN1CCN(/C=N/c2c(C#N)cnn2Cc2ccccc2)CC1,-0.7,-10.2%,-15.3%[38.3 µM],4.3,0.9%,1.3,0.3
O=C(CSc1ncc(CO)n1Cc1ccc(F)cc1)NCc1ccco1,1.9,/,-3.3%,10.9,0.3%,/,/
NC(=O)SCC(=O)Nc1ccc(Cl)c(Cl)c1,0.2,?,-3.7%,-0.3,-1.1%,0.7,6.1
S=c1[nH]nc(-c2ccccc2)n1/N=C/C=C/c1ccco1,1.6,50.1µM*,2.7%,-16.5,0.9%,-3.3,10.5
COc1ccc(OC)c(-c2cc(C(=O)N/N=C(\C)c3cccnc3)c3ccccc3n2)c1,0.2,-1.0%,2.6%,11.9,-2.0%,19.9,1.1
CCN(CC)CCn1c(=S)[nH]c2ccc(Cl)cc2c1=O,-0.2,-8.4%,-0.2%[38.3 µM],-3.3,-6.9%,9.0,-1.3
O=C(CSc1nnc(CCc2ccccc2)n1-c1ccc(Cl)cc1)c1ccccc1,2.4,-18.7%,?,7.2,0.8%,-12.5,2.7
O=C(CSc1ccc(-c2nc3ccccc3[nH]2)cn1)Nc1ccc2c(c1)OCCO2,2.4,-1.5%,/,-6.3,25.1µM*,4.8,2.2
SMILES,TRPML1 ag,Sfp inh,PINK1 expr mod,TRPML1 inh,ClpP mod,TRPV1 PAM,Menin MLL FP FL
COc1cccc(CNC(=O)CSc2nnc3c(n2)[nH]c2ccccc23)c1,0.2,14.5%,3.1%,-15.4,/,-1.4,4.7
c1ccc2oc(Cc3ccc(Cc4nc5ccccc5o4)cc3)nc2c1,0.3,-3.7%,0.7%,-1.8,1.3%,-6.2,2.8
O=[N+]([O-])c1ccc(OCC(O)CNC2CCCC2)cc1 (configuration not stated),-0.7,9.1%,-1.4%,-11.2,/,0.2,-2.4
CC(C)(O)c1ccccc1CC[C@@H](SCC1(CC(=O)O)CC1)c1cccc(/C=C/c2ccc3ccc(Cl)cc3n2)c1,0.8,/,3.9%,-0.6,4.8%,/,/
CCn1cc(C(=O)O)c(=O)c2cnc(N3CCN(C(=S)NC(=O)c4ccc(Br)cc4)CC3)nc21,0.8,22.0%,0.6%,12.6,-6.5%,/,1.3
O=[N+]([O-])c1cc(Br)c(O)c(/C=N/Nc2nc3ccccc3s2)c1,-0.7,-0.9%,?,10.1,/,17.0,-1.2
CCc1cccc(NC(=O)CSc2nnc(-c3cc4occc4n3C)n2-c2ccccc2C)c1,0.8,/,0.2%,-1.8,-11.6%,/,/
CCCCc1nc2ccccc2n2c(-c3ccc(OC)cc3)c3c(=O)n(C)c(=O)n(C)c3c12,-1.0,/,2.8%,-17.4,?,/,/
COc1ccc(C(=O)N/N=C/c2ccc(OC)c(OS(=O)(=O)c3ccccc3)c2)cc1,2.1,-4.9%,1.2%,92.7,/,-24.0,9.4
Cc1ccc2c(c1)-c1cc(C)ccc1C2=O,0.4,/,-1.6%,9.7,/,/,/
O=C(COC(=O)COc1ccc(Cl)cc1)NC1CCCCCC1,0.2,/,1.4%,-16.8,0.3%,-13.0,/
Cc1onc(-c2c(F)cccc2Cl)c1C(=O)ONC(=O)c1ccco1,2.2,7.7%,-0.1%,-7.9,-13.4%,0.7,-18.5
Cc1ccc(Cn2ccn(CC(=O)Nc3ccccc3C(F)(F)F)c(=O)c2=O)cc1,1.8,/,0.8%,7.0,-0.3%,/,/
CC(C)c1ccc(NC(=O)c2ccc(CN3CC(=O)N4CCCCC4C3=O)cc2)cc1 (configuration not stated),0.4,/,-0.8%,12.5,-0.5%,/,/

# Bioassay records from PubChem BioAssay.
